Compound activity as filed in PubChem BioAssay.
AF4-AF9 inh: inhibitors of AF4 peptide binding to AF9, primary screen, biochemical, AlphaScreen, biotin-AF4 peptide, FLAG-AF9, single point; 350,000 tested, 0.47% active; inhibition, % at 10 µM; Protein AF-9 (Homo sapiens), P42568; AID 651704, 2012;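 active = every replicate reaching a set inhibition limit, whatever the replicate mean, cut at about 25% in these data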;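 note: 0% = plate neutral control median and 100% = total signal loss; the record names both 10 and 1 µM as test concentration; the first replicate is given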
Target sequence (P42568 whole entry, looked up): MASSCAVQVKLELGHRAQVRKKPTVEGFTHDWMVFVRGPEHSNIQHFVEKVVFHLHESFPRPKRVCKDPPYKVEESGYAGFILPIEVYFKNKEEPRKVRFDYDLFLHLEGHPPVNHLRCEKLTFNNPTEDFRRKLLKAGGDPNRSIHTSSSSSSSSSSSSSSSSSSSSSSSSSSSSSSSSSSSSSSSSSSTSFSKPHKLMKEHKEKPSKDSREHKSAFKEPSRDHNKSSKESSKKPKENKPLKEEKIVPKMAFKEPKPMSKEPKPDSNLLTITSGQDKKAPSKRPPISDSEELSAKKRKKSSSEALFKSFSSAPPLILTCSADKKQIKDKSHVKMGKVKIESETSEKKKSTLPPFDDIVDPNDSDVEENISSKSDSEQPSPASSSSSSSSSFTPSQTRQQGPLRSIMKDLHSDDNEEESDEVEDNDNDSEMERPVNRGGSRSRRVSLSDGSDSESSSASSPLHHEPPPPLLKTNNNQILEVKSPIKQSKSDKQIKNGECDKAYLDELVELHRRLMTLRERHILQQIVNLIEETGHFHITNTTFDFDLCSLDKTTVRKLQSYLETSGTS
Ecoli rRNA inh: reduced GFP signal of wild-type E. coli, primary screen, bacterial rRNA inhibitor project, GFP/RFP fluorescence, OD600, single point | GFP signal change (wild-type ribosome), % (test concentration not listed) | AID 720706, 2013 | E. coli WT GFP vs humanized-ribosome RFP mutants, 24 h; active compounds read low; DMSO median 0, no signal -100 | 350,000 tested, 1.6% active;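 active = significant combined selectivity score with lowered wild-type GFP, culture density cut under 30%, mutant RFP and density less affected; inactive = any of these conditions unmet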; note: one replicate is shown; some compounds called inactive have numbers as strong as hits
Ecoli rRNA inh OD600: recorded beside Ecoli rRNA inh, whose call it bears; OD600 change, %; measured here: OD600 growth;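 optical density of the mix in the first replicate; 0 = DMSO median and -100 = no signal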
Ecoli rRNA inh RFP: recorded beside Ecoli rRNA inh, whose call it bears; RFP signal change, %; measured here: RFP humanized mutant strains;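 first replicate; 0 = DMSO median and -100 = no signal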
Starred values were filed as active, the others as inactive; & = joins results of further samples. An excerpt; the hit share may differ from the screen's.

[1] CC(=O)N1[C@H](CO)[C@H](c2ccc(-c3cccnc3)cc2)[C@@H]1CNC(=O)C1CCC1
[2] N[C@@H]1CC[C@H](CCn2cc(C3CC3)nn2)O[C@@H]1CO
[3] CN(C)C(=O)c1ccc(-c2ccc([C@H]3[C@H]4CN(C(=O)C5CCCC5)CC(=O)N4[C@H]3CO)cc2)cc1
[4] O=C(N[C@H]1C=C[C@@H](CC(=O)N2CCc3ccccc3C2)O[C@H]1CO)C1CCOCC1
[5] COc1ccc(-c2ccccc2[C@H]2[C@@H](C#N)N(C(=O)C3CCCC3)[C@@H]2CO)cc1
[6] COc1ccc(CN2CC3(CCN(S(=O)(=O)c4ccc(C)cc4)CC3)c3c([nH]c4cc(OC)ccc34)[C@H]2CO)cc1
Screen / compound no.,1,2,3,4,5,6
AF4-AF9 inh,0.2,-6.0,11,-2.2,-2.2,-5.3
Ecoli rRNA inh,3,2,1,7,-6,-28
Ecoli rRNA inh OD600,7,1,12,14,0,-54
Ecoli rRNA inh RFP,-1.1,2.8,-0.6,-4.0,2.8,38

Complete entries from above. Screens in order: AF4-AF9 inh | Ecoli rRNA inh | Ecoli rRNA inh OD600 | Ecoli rRNA inh RFP
CC(=O)N1[C@H](CO)[C@H](c2ccc(-c3cccnc3)cc2)[C@@H]1CNC(=O)C1CCC1 is listed as 0.2 | 3 | 7 | -1.1
N[C@@H]1CC[C@H](CCn2cc(C3CC3)nn2)O[C@@H]1CO is listed as -6.0 | 2 | 1 | 2.8

Next results:
[7] CC=Cc1ccc2n(c1=O)C[C@H]1[C@H](CO)[C@@H](C(=O)N(C)C)[C@@H]2N1S(=O)(=O)c1ccccc1C (mixture of isomers)
[8] CCC(=O)N(C)C[C@H]1Oc2cc(-c3cncnc3)ccc2S(=O)(=O)N([C@@H](C)CO)C[C@H]1C
[9] O=C1CNC[C@H]2[C@H](c3ccc(C#CC4CCCC4)cc3)[C@@H](CO)N12
[10] CC(C)NC(=O)Nc1ccc2c(c1)CC(=O)N([C@H](C)CO)C[C@H](C)[C@H](CN(C)C(=O)Nc1ccc(F)cc1)O2
[11] C[C@@H]1CN([C@H](C)CO)C(=O)c2cc(C#CCN(C)C)cnc2O[C@@H]1CN(C)S(=O)(=O)c1ccccc1
[12] CO[C@H]1CN(C)C(=O)c2ccc(NS(C)(=O)=O)cc2OC[C@@H](C)N(C(=O)C2CCCCC2)C[C@@H]1C
Screen / compound no.,7,8,9,10,11,12
AF4-AF9 inh,-3.8,0.2,0.3,-4.7,0.7,0.1
Ecoli rRNA inh,-3,3,-2,6,-5,3
Ecoli rRNA inh OD600,-6,-1,3,7,-11,5
Ecoli rRNA inh RFP,-1.9,-0.6,-1.8,-2.7,1.1,0.0

[13] O=C(c1ccncc1)N1C[C@@H]2N[C@H](C1)C2c1ccc(/C=C/c2ccccc2)cc1 (stereo partly specified)
[14] CCCC#Cc1ccc([C@H]2[C@@H](CO)N3C(=O)CN(C(=O)c4cccnc4)C[C@H]23)cc1
[15] COc1cccc(-c2ccc3c(c2)[C@@H]2[C@@H](CCN2C(=O)C2CC2)[C@H](CO)N3)c1
[16] CCC(=O)N1CC(=O)N2[C@H](C1)[C@H](c1ccc(C#CCc3ccccc3)cc1)[C@@H]2CO
[17] COCC(=O)N1[C@H](CO)[C@@H]2c3ccccc3N(C(=O)c3ccccc3F)C[C@@H]21
[18] Cc1ccc(S(=O)(=O)N(C)C[C@@H]2OCCCC[C@@H](C)Oc3ccc(NC(=O)c4ccncc4)cc3C(=O)N([C@@H](C)CO)C[C@H]2C)cc1
Screen / compound no.,13,14,15,16,17,18
AF4-AF9 inh,10&11,-0.4,14,-1.3,-5.0,-1.8
Ecoli rRNA inh,-4&0,2,-1,1,2,-3
Ecoli rRNA inh OD600,10&-8,4,-5,4,3,-11
Ecoli rRNA inh RFP,9.0&-1.9,-3.8,1.0,-0.9,0.3,-0.3

[19] COCC(=O)N1CC(=O)N2[C@H](CO)[C@H](c3ccc(C#Cc4cccc(OC)c4)cc3)[C@@H]2C1
[20] O=C(c1ccc(F)cc1)N1CC(=O)N2[C@H](CO)[C@H](c3ccc(C#CC4CC4)cc3)[C@H]2C1
[21] COc1cccc(CNC(=O)C[C@@H]2C=C[C@H](NC(=O)C3CCC3)[C@@H](CO)O2)c1
[22] O=C(Nc1cccc(F)c1)N1C[C@@H]2N[C@H](C1)C2c1ccc(-c2ccncc2)cc1 (stereo partly specified)
[23] COc1ccc(-c2ccc([C@H]3[C@H](CO)N4C(=O)CN(Cc5ccc(F)cc5)C[C@@H]34)cc2)cc1
[24] COc1ccc2c3c(n(C)c2c1)[C@@H](CO)NCC31CN(C(C)=O)C1
Screen / compound no.,19,20,21,22,23,24
AF4-AF9 inh,-1.1,0.5,-6.4,-3.3&-0.1,6.9,-0.4
Ecoli rRNA inh,1,-4,2,-6&1,-1,2
Ecoli rRNA inh OD600,-6,-3,5,-4&21,-15,14
Ecoli rRNA inh RFP,4.9,-0.4,-4.0,-1.6&-0.4,13,-4.3

[25] O=C(NCCN1CCCC1)[C@H]1[C@H](CO)[C@H]2Cn3c(cccc3=O)[C@H]2N1Cc1ccccn1
[26] COCC(=O)Nc1ccc2c(c1)OC[C@@H](C)N(Cc1ccccc1)C[C@@H](C)[C@H](OC)CN(C)C2=O
[27] CC=Cc1ccc2n(c1=O)C[C@H]1[C@H](CO)[C@@H](C(=O)N[C@H](C)c3ccccc3)[C@@H]2N1Cc1ccccc1 (mixture of isomers)
[28] CNC[C@@H]1Oc2ccc(N)cc2CC(=O)N([C@H](C)CO)C[C@H]1C
[29] CO[C@@H]1CN(C)C(=O)c2cc(NC(C)=O)ccc2OC[C@H](C)N(Cc2cccc(F)c2)C[C@H]1C
[30] N#Cc1cccc(-c2ccc(C3[C@H]4CNC[C@@H]3N4S(=O)(=O)c3ccccc3F)cc2)c1 (stereo partly specified)
Screen / compound no.,25,26,27,28,29,30
AF4-AF9 inh,-2.4,-2.6,5.0,-6.4,3.4,-5.2
Ecoli rRNA inh,3,-5,-7,-1,-5,-7
Ecoli rRNA inh OD600,13,-5,3,-4,-12,-7
Ecoli rRNA inh RFP,0.3,1.0,3.6,0.8,1.5,1.6

Along the list, as entered above.
Entries 25 to 30 in Ecoli rRNA inh OD600, in turn: 13, -5, 3, -4, -12, -7
Entries 25 to 30 in Ecoli rRNA inh, in turn: 3, -5, -7, -1, -5, -7

Other compounds follow.
[31] Cc1nn(C)cc1NC(=O)C[C@@H]1CC[C@H]2[C@@H](COc3ccc(NC(=O)C4CCC4)cc3C(=O)N2C)O1
[32] C#CCN(Cc1cccc(F)c1)C(=O)c1nnc2c3ccccc3n(S(=O)(=O)c3ccc(C)cc3)c2n1
[33] N#Cc1ccc(-c2ccc(C3[C@@H]4CN(C(=O)C5CCOCC5)C[C@H]3N4)cc2)cc1 (stereo partly specified)
[34] CN1CCCCN2[C@H](CO)[C@H](c3ccc(-c4ccc(F)cc4)cc3)[C@H]2C1
[35] CN(C)CC(=O)Nc1ccc2c(c1)[C@H]1C[C@@H](CC(=O)N3CCN(C)CC3)O[C@@H](CO)[C@H]1O2
[36] Cc1ccc(S(=O)(=O)N(C)C[C@H]2OCCCC[C@@H](C)Oc3ccc(NC(=O)NC(C)C)cc3C(=O)N([C@@H](C)CO)C[C@H]2C)cc1
Screen / compound no.,31,32,33,34,35,36
AF4-AF9 inh,-2.6,4.0,-16&-25,-5.1,-0.1,-1.6
Ecoli rRNA inh,4,8,3&6,-1,4,-5
Ecoli rRNA inh OD600,-1,9,1&15,-3,10,-4
Ecoli rRNA inh RFP,-2.3,3.3,-1.1&-3.1,-5.9,-1.2,2.7

Reprinted from the part before: 2 compounds, followed by the next part.
[35] CN(C)CC(=O)Nc1ccc2c(c1)[C@H]1C[C@@H](CC(=O)N3CCN(C)CC3)O[C@@H](CO)[C@H]1O2
[36] Cc1ccc(S(=O)(=O)N(C)C[C@H]2OCCCC[C@@H](C)Oc3ccc(NC(=O)NC(C)C)cc3C(=O)N([C@@H](C)CO)C[C@H]2C)cc1
[37] COc1ccc(-c2ccc([C@H]3[C@@H](CO)N4C(=O)CN(C(=O)c5cccnc5)C[C@H]34)cc2)cc1
[38] C[C@@H]1CN([C@@H](C)CO)C(=O)c2cc(NS(C)(=O)=O)ccc2O[C@H]1CN(C)CC1CC1
[39] COc1ccc2c3c(n(C)c2c1)[C@@H](CO)N(CC1CC1)CC31CN(Cc2ccc(F)cc2)C1
[40] CCS(=O)(=O)N1CC2(CN(CC3CCOCC3)[C@@H](CO)c3c2c2ccc(OC)cc2n3C)C1
[41] CN(C)CC(=O)N[C@@H]1CC[C@H](CC(=O)O)O[C@@H]1CO
[42] COc1ccc(C#Cc2ccc([C@H]3[C@@H](CO)N4C(=O)CN(C(=O)c5ccccc5)C[C@H]34)cc2)cc1
Screen / compound no.,35,36,37,38,39,40,41,42
AF4-AF9 inh,-0.1,-1.6,0.2,6.7,30*,-5.5,0.0,-17
Ecoli rRNA inh,4,-5,0,1,1,2,-2,-6
Ecoli rRNA inh OD600,10,-4,1,-1,5,9,0,-55
Ecoli rRNA inh RFP,-1.2,2.7,-1.5,-1.8,2.7,-0.9,-0.3,23

[43] CCCC#Cc1ccc([C@@H]2[C@@H](CO)N3C(=O)CN(C(=O)c4ccc(F)cc4)C[C@H]23)cc1
[44] O=C(c1cnccn1)N1CC(=O)N2[C@H](CO)[C@H](c3ccc(C#CCC4CCCC4)cc3)[C@H]2C1
[45] COc1ccccc1-c1ccc(C2[C@H]3CNC[C@@H]2N3C(=O)Nc2ccccc2Cl)cc1 (stereo partly specified)
[46] O=C1CN(S(=O)(=O)c2cccc(F)c2)C[C@H]2[C@H](c3ccc(-c4ccc(F)cc4)cc3)[C@H](CO)N12
[47] O=C(C[C@@H]1C=C[C@@H](NS(=O)(=O)c2ccc(F)cc2)[C@H](CO)O1)NCc1ccccc1F
[48] C[C@H](CO)N1C[C@H](C)[C@H](CN(C)C(=O)Nc2ccccc2)OCCCC[C@H](C)Oc2ccc(NC(=O)Nc3cccc4ccccc34)cc2C1=O
Screen / compound no.,43,44,45,46,47,48
AF4-AF9 inh,1.2,3.7,7.0,-0.6,-4.2,-2.8
Ecoli rRNA inh,12,3,-59,1,2,-2
Ecoli rRNA inh OD600,-1,-15,-80,-5,4,-3
Ecoli rRNA inh RFP,13,0.3,-19,-0.5,-1.1,1.4

[49] CN1C(=O)c2cc(NS(=O)(=O)c3ccc(Cl)cc3)ccc2OC[C@H]2O[C@@H](CC(=O)N3CCc4ccccc4C3)CC[C@@H]21
[50] O=C(NC1CCC1)[C@H]1[C@H](CO)[C@H]2Cn3c(ccc(-c4ccc(F)cc4)c3=O)[C@@H]1N2Cc1cocn1
[51] CC=Cc1ccc2n(c1=O)C[C@H]1[C@H](CO)[C@@H](C(=O)NC3CCC3)[C@@H]2N1C(=O)c1cnccn1 (mixture of isomers)
[52] N#C[C@@H]1[C@H](c2ccc(C3=CCCC3)cc2)[C@@H](CO)N1C(=O)c1ccccn1
[53] CC=Cc1ccc2n(c1=O)C[C@@H]1[C@@H](CO)[C@H](C(=O)Nc3ccc(-c4ccccc4)cc3)[C@H]2N1C(C)=O (mixture of isomers)
[54] Cc1ccccc1S(=O)(=O)N1CC(=O)N2[C@H](CO)[C@@H](c3ccc(C#CCN(C)C)cc3)[C@@H]2C1
Screen / compound no.,49,50,51,52,53,54
AF4-AF9 inh,0.8,-5.7,-1.7,-1.6,10.0,0.1
Ecoli rRNA inh,-6,-2,-1,6,-2,0
Ecoli rRNA inh OD600,-14,4,12,20,-26,1
Ecoli rRNA inh RFP,7.3,-4.2,-4.2,0.8,19,-0.3

[55] COCC(=O)N1CC(=O)N2[C@@H](CO)[C@@H](c3ccc(C#Cc4cccc(OC)c4)cc3)[C@@H]2C1
[56] CCCC#Cc1ccc([C@@H]2[C@H]3CN(C(=O)c4ccccc4)CC(=O)N3[C@H]2CO)cc1
[57] CO[C@H]1CN(C)C(=O)c2cc(NC(=O)C3CC3)ccc2OC[C@@H](C)N(C(=O)Cc2ccccn2)C[C@H]1C
[58] O=C(Nc1cccc(F)c1)N1[C@@H]2CNC[C@H]1C2c1ccc(-c2ccncc2)cc1 (stereo partly specified)
[59] C/C=C/c1ccc(C2[C@H]3CNC[C@@H]2N3S(=O)(=O)c2cn(C)cn2)cc1 (stereo partly specified)
[60] C/C=C/c1ccc2c(c1)O[C@H](CN(C)C(=O)Nc1ccc(F)cc1)[C@@H](C)CN([C@@H](C)CO)S2(=O)=O
[61] O=C(Cc1ccccc1)N1CC(=O)N2[C@H](C1)[C@@H](c1ccc(-c3ccccc3)cc1)[C@@H]2CO
[62] O=C(Nc1cccc(F)c1)N1CC(=O)N2[C@H](CO)[C@@H](c3ccc(C#CCC4CCCC4)cc3)[C@@H]2C1
Screen / compound no.,55,56,57,58,59,60,61,62
AF4-AF9 inh,0.2,-0.6,-8.9,-0.3,1.0,4.0,1.1,-1.1
Ecoli rRNA inh,-4,6,-2,-25*,7&8,5,-40,4
Ecoli rRNA inh OD600,-5,-9,3,-8.0*,11&12,-3,-68,7
Ecoli rRNA inh RFP,1.5,6.0,-0.1,-0.3*,0.7&-3.5,0.4,0.4,3.5
